CDC25B CDK2 inh: primary biochemical HTRF screen for blockers of M-phase inducer phosphatase 2 binding to CDK2/cyclin A; P30305+P24941; HTRF CDC25B-CDK2/CyclinA binding, anti-His/anti-Flag; stronger effect = higher value; z-score (test concentration not listed); 94,000 compounds, 0.72% hits; AID 1259370, 2018;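 note: score is relative to mean and SD of negative controls; strong numbers were not always called active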
TAR Tat displ: TAR RNA-Tat peptide displacers, HIV-1, primary screen, biochemical, FRET, FAM/TAMRA-labeled Tat; HIV-1 TAR RNA, Tat peptide displacement FRET; stronger effect = higher value; z-score (concentration not given with the values); 100,000 compounds, 0.6% hits;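 note: score is relative to mean and SD of negative controls; some compounds called inactive have numbers as strong as hits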
* hit, by the source's call; x = no result given.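 Rule for the calls: active = z-score from 3 up in half or more of its runs; inactive = the rest.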

compound,CDC25B CDK2 inh,TAR Tat displ
N=c1ncn(Cc2ccccc2)c2nc(SCC(=O)O)[nH]c12,-0.48,x
CCN1CCN(C(=O)C(CC(C)C)NS(=O)(=O)c2ccc3[nH]c(=O)ccc3c2)CC1 (configuration not stated),x,2.9
COC(=O)c1ccc(Cn2cc(Cl)cn2)cc1,0.28,3.6
CC(=O)c1csc([N+](=O)[O-])c1,-1.7,x
COC(=O)c1sc(S(=O)(=O)Nc2ccc(OC)cc2)cc1Cl,1.1,x
CC1=C(c2ccc(C)cc2)S(=O)(=O)N=C1Nc1ccc(C)cc1,-1.3,-0.78
NCCc1nnc(SCc2cccc(Cl)c2)o1,-2.2,1
COC(=O)c1cc(S(=O)(=O)Nc2cc(Cl)ccc2OC)cn1C,-1.2,1.9
O=C1c2ccccc2C(=O)N1CNc1ccc(Oc2ccccc2)cc1,-0.87,x
CCCCN(CCS(=O)(=O)N1CCNCC1)S(=O)(=O)c1ccc(C)cc1,x,1.8
O=C(c1ccc2nsnc2c1)N1CCN(C2c3ccccc3-c3ccccc32)CC1,-1.3,x
COc1ccc(Cl)cc1NC(=O)CSc1nccn1C1CCCC1,x,1.8
Oc1c(C(Nc2ccccn2)c2ccc(Br)cc2)ccc2cccnc12 (configuration not stated),0.13,x
COc1cccc(C2OC(c3cc(C4CC4)nc4ccccc34)=NN2C(C)=O)c1OC(C)=O (configuration not stated),x,1.4
COc1ccc(-c2nc3cc(OC)c(OC)cc3c(=O)o2)cc1,-0.31,0.58
O=C1Nc2c(S(=O)(=O)Nc3ccc(Cl)cc3)cc(S(=O)(=O)Nc3ccc(Cl)cc3)c3cccc1c23,0.13,x
Cc1ccc(Oc2ncccc2NC(=O)c2ccc3c(c2)OCCCO3)c2c1CCC2,-0.72,x
O=C(NCc1cccs1)c1cc(-c2ccco2)on1,-1.4,0
Cc1noc2ncnc(NCc3ccccc3Cl)c12,x,0.29
COc1ncccc1[N+](=O)[O-],-2.1,x
CCOc1ccc(-n2ccc(=O)c(C(=O)Nc3nnc(CC)s3)n2)cc1,-0.04,-1.2
COC(=O)C1=C(C)NC2=C(C(=O)CC(c3ccccc3)C2)C1c1ccccc1Cl (configuration not stated),-1.1,1.1
FC(F)(F)c1cc(-c2ccc(Cl)cc2)nc(-n2ccnc2)n1,-1.2,x
CCSc1ncccc1C(=O)Oc1cc(C)nn1-c1ccccc1,-3.2,x
O=C(Cn1cnc([N+](=O)[O-])n1)Nc1ccc(F)c(Cl)c1,-1.3,0.63
CCC(Sc1nc2ccc(Br)cc2[nH]1)C(=O)O (configuration not stated),-1.3,1.3
C=CCOc1cccc(-c2nc3c(c(=O)[nH]2)Cc2cc(Cl)ccc2O3)c1,-1.4,2
CC(C)(C)C1(C)OC(O)(C(Cl)Cl)CC1=O (configuration not stated),-3.7,x
Cc1nc2ccccc2n1Cc1cccc(Cl)c1,-0.03,0.58
COC(=O)c1cc2occc2n1Cc1nc(-c2ccccc2C)oc1C,-2.6,-1.8
Cn1cc(CC(=O)O)c2ccccc21,-0.19,-1.2
O=C(CN1N=C(c2ccccc2)c2cc(Cl)ccc2S1(=O)=O)NC1CCCC1,x,0.21
CCOC(=O)C(C)NC(=O)CCc1nnc2ccc(N3CCCC3)nn12 (configuration not stated),x,0.53
COC(=O)c1c(NC(=O)COc2ccccc2)sc2c1CCCC2,-1.1,0.52
COc1cc(Nc2cccc3c2C(=O)c2ccccc2C3=O)c(OC)cc1C=O,-3.8,x
CC(C)n1cnc2nc(COc3ccc(NC(=O)c4cccs4)cc3)cc(=O)n21,-0.85,0.17
CCCn1cc(S(=O)(=O)c2ccccc2)c(=O)c2cc(F)c(N3CCCC3)cc21,x,2.7
Cc1nn2c(=O)cc(COC(=O)c3ccccc3F)nc2s1,x,-0.27
CC1CCN(S(=O)(=O)c2ccc3c(c2)NC(=O)CCS3)CC1,x,1.9
Cc1cc(-c2ccc(=O)[nH]n2)cc(S(=O)(=O)N2CCN(c3ccccc3)CC2)c1C,x,1.9
CCn1c2ccccc2c2cc(N3C(=O)C=CC3=O)ccc21,0.49,x
CC1CCN(C(=O)CN2CC(C)Sc3ccccc32)CC1 (configuration not stated),x,1.9
O=C(Nc1ccccc1)NC(c1ccccc1)c1nnc(-c2ccc(Cl)cc2)o1 (configuration not stated),x,1
CC(=O)c1cc2c(s1)SCC(=O)N2,-1.6,x
N/C(=N\OC(=O)N1CCOCC1)c1cccc(C(F)(F)F)c1,0.12,x
O=S(=O)(c1ccccc1)n1nc(-c2ccco2)nc1NCc1cccc(Cl)c1,-0.96,0.94
Cc1ccnc(NC(=O)c2cc3c(s2)-c2ccc(Cl)cc2S(=O)(=O)C3)c1,0.22,1.1
CC(C)NC(=O)CSC1=Nc2ccccc2C2=NC(Cc3ccccc3)C(=O)N12 (configuration not stated),x,0.95
CN1CCN(CCCNC(=O)C2CCN(C(=O)c3ccc(-n4ccc5ccccc54)s3)CC2)CC1,x,2.8
CN(C)CCN(C(=O)CCSc1ccccc1)c1nc2c(F)cccc2s1,x,1.5
CCCNC(=O)c1cc(CC)on1,-2.1,0.7
CC(=O)NC1=NN(C(C)=O)C(c2ccccc2)S1 (configuration not stated),-0.45,x
CCN(CC)CCCNC(=O)Cn1ncc2c(=O)oc3ccccc3c21,0.21,0.11
O=C(OCc1ccccc1)C1=NNC2C(=O)N(c3ccccc3)C(=O)C12 (configuration not stated),0.99,0.07
O=C(O)CSCC(=O)NCc1ccc(-c2cccs2)s1,-1.6,x
Cc1ccc2oc3c(c(=O)c2c1)C(c1ccc(C(C)C)cc1)N(CCCN(C)C)C3=O (configuration not stated),0.36,1.3
COc1ccc(Cl)cc1NC(=O)NCCc1csc2c1CCCC2,x,-0.07
CCNc1cc(N2CCN(C3CCCCC3)CC2)c2noc3c2c1C(=O)c1ccccc1-3,-1.8,1.5
COc1ccc(N2C(=O)C3CC=CCC3C2=O)cc1Cl (configuration not stated),-2.4,x
COc1ccc(Cl)cc1NC(=O)CCc1nnc2ccc(N3CCCC3)nn12,x,0.53

(further entries)
Order of values: CDC25B CDK2 inh | TAR Tat displ
- O=C1c2ccccc2-c2onc3c(N4CCN(c5ncccn5)CC4)cc(NCCO)c1c23
    -3.1 | 2
- COc1ccc(N2CCN(C3=NS(=O)(=O)c4ccccc43)CC2)cc1
    -2.6 | -0.37
- CCOC(=O)C1=C(C)OC(N)=C(C(=O)OCC)C1c1ccncc1 (configuration not stated)
    -1.4 | x
- COc1cc(OC)c(NS(=O)(=O)c2cc(-c3csc(C)n3)ccc2C)cc1Cl
    x | -0.01
- O=C1CNC(=O)c2ccccc2N1
    -1.3 | x
- N#Cc1cnc(N2CCCC2)nc1N
    -1.4 | x
- Cc1noc2ncnc(NC(C)(C)CO)c12
    x | 1
- COc1cc(OC)cc(C(=O)Nc2noc3ccccc23)c1
    -1.3 | 0.69
- CCOc1ccc(NC2=NS(=O)(=O)C(c3ccc(C)c(C)c3)=C2C)cc1
    2 | -2.2
- COc1ccc(OCc2nc(-c3cccs3)no2)cc1
    -0.56 | 0.5
- CS(=O)(=O)N1CCc2cc(S(=O)(=O)NCc3ccccc3Cl)ccc21
    x | 1.5
- O=C(NC1CCN(C(=O)c2ccco2)CC1)C1CCC1
    -1.5 | x
- O=C(c1ccccc1)c1c[nH]c2ccccc12
    -1.4 | 1.6
- CCOc1ccc(-c2ccc(NS(=O)(=O)N(C)C)cc2)nn1
    x | -1.2
- Cc1ccc(Cn2cc(C(=O)c3ccc(F)cc3)c(=O)c3cc4c(cc32)OCCO4)cc1
    -0.73 | 1.9

A different layout for 2 compounds above:
O=C1CNC(=O)c2ccccc2N1
  CDC25B CDK2 inh: -1.3	TAR Tat displ: x

N#Cc1cnc(N2CCCC2)nc1N
  CDC25B CDK2 inh: -1.4	TAR Tat displ: x

Continuation:
Order of values: CDC25B CDK2 inh | TAR Tat displ
- Cc1cc(=O)n2nc(N(C)CC(=O)NCc3cccs3)sc2n1
    0.77 | 1.7
- CCOC(=O)c1c(C)[nH]c(C)c1S(=O)(=O)NCc1ccco1
    x | 0.67
- CCOC(=O)c1c(C)[nH]c(C)c1S(=O)(=O)NC1CCN(C(=O)OCC)CC1
    x | 0.36
- Cc1cc(C)c2[nH]cc(C(=O)O)c(=O)c2c1
    -3.1 | -0.4
- CNc1nc(Nc2ccccc2)c2cnn(C)c2n1
    x | 1.1
- Cc1noc(/C=C/c2cc(Cl)cc(Cl)c2)c1[N+](=O)[O-]
    2.8 | x
- Cc1cc2nc(COC(=O)c3ccccc3C)cc(=O)n2o1
    x | -0.33
- C=CCOC(=O)c1sc(N2C(=O)c3oc4ccccc4c(=O)c3C2c2ccc(O)cc2)nc1C (configuration not stated)
    -0.55 | 3.5
- COC(=O)c1sc2cccc(F)c2c1S(=O)(=O)N1CCOCC1
    x | 0.32
- O=C(Nc1nc(CC(=O)N2CCN(C(=O)c3ccco3)CC2)cs1)NC1CCCC1
    x | 1.9
- COC(=O)c1ccc2c(c1)NC(=O)c1ccccc1S2
    -0.87 | x
- Cc1ccc(-c2cc(C(=O)Nc3ncc([N+](=O)[O-])s3)no2)cc1F
    -2.6 | 2.3
- O=S1(=O)c2ccccc2NC(c2ccccc2)N1Cc1ccccc1 (configuration not stated)
    -0.86 | x
- COc1ccc(CNS(=O)(=O)c2cc(-c3noc(C)n3)cs2)cc1
    x | 1.7
- O=C1CSc2nnc(-c3ccccc3Br)n2N1
    -1.4 | 2.7
- COc1ccc(NC(=O)CN2N=NC3C(=O)N(c4ccc(Br)cc4)C(=O)C32)c(OC)c1 (configuration not stated)
    x | 0.35
- CC1=CC(C)(C)Nc2ccc(OC(=O)CN3C(=O)c4cccc([N+](=O)[O-])c4C3=O)cc21
    -1.3 | x
- COc1cc(C(=O)OCCCN2CCCN(CCCOC(=O)c3cc(OC)c(OC)c(OC)c3)CC2)cc(OC)c1OC
    -3.5 | x
- O=c1oc2c3c(ccc2c2ccccc12)OCN(CCc1ccccc1)C3
    -1.4 | -1.6
- O=C(c1cccc(Cl)c1)N1N=C(C2CCCCC2)CC1(O)C(F)(F)F (configuration not stated)
    0.84 | x
- Cc1ccc2oc3c(c(=O)c2c1)C(c1ccc(F)cc1)N(c1nc(C)c(C)s1)C3=O (configuration not stated)
    -1.1 | 0.28
- Cc1c2c(=O)n(-c3ccccc3)[nH]c2cc(=O)n1Cc1ccco1
    4.3 | 9.6*
- Cc1nn2c(=O)cc(CSc3ccccc3NC(=O)C(C)(C)C)nc2s1
    x | 0.97
- Clc1ccc(OCc2nc(-c3ccc(Cl)cc3)no2)cc1
    2 | 1
- Cc1ccc(S(=O)(=O)Nc2ccc3c(c2)N(S(C)(=O)=O)CCC3)cc1C
    x | 0.46
- CCOC(=O)c1cc(Cl)c(NC(=O)c2ccc([N+](=O)[O-])cc2)c(Cl)c1
    -1.2 | x
- c1ccc(C(Cc2nc(-c3cccnc3)no2)c2ccccc2)cc1
    -0.49 | 3.2
- CCOC(=O)c1csc(Nc2ccncc2)n1
    -1 | x
- Cc1ccc(/C(O)=C2/C(=O)C(=O)N(c3cccnc3)C2c2ccc(O)cc2)cc1 (configuration not stated)
    -0.01 | 0.36
- CCN1CNC(=S)N(c2cccc(OC)c2)C1
    -0.38 | x

Ordered by formula weight (descending): part of the list above
Order of values: CDC25B CDK2 inh | TAR Tat displ
- COc1cc(C(=O)OCCCN2CCCN(CCCOC(=O)c3cc(OC)c(OC)c(OC)c3)CC2)cc(OC)c1OC
    -3.5 | x
- Cc1ccc2oc3c(c(=O)c2c1)C(c1ccc(F)cc1)N(c1nc(C)c(C)s1)C3=O (configuration not stated)
    -1.1 | 0.28
- Cc1ccc(S(=O)(=O)Nc2ccc3c(c2)N(S(C)(=O)=O)CCC3)cc1C
    x | 0.46
- Cc1nn2c(=O)cc(CSc3ccccc3NC(=O)C(C)(C)C)nc2s1
    x | 0.97
- O=C(c1cccc(Cl)c1)N1N=C(C2CCCCC2)CC1(O)C(F)(F)F (configuration not stated)
    0.84 | x
- c1ccc(C(Cc2nc(-c3cccnc3)no2)c2ccccc2)cc1
    -0.49 | 3.2

The list continues:
Order of values: CDC25B CDK2 inh | TAR Tat displ
- CC1=C(c2ccccc2)S(=O)(=O)N=C1N1CCN(C)CC1
    -2 | 1.3
- Fc1ccc(-c2noc3ncnc(N(CCCN4CCOCC4)Cc4ccco4)c23)cc1
    x | 0.18
- Cc1cc(C)c2oc(C(=O)N(Cc3ccc(C)o3)c3ccccn3)cc(=O)c2c1
    -1.9 | -0.57
- Cn1c(=O)c2c(ncn2Cc2cccc(F)c2)n(C)c1=O
    -1.3 | 0.54
- CCOC(=O)CSc1nn(C)c2nc3c(c(=O)n12)C(C)(C)Cc1ccccc1-3
    -0.97 | -0.23
- CSc1ccccc1NC(=O)c1cc2c(=O)n3ccccc3nc2n1C
    x | 0.24
- CSc1ccc(CCNC(=O)c2cnc3scc(C)n3c2=O)cc1
    x | 1.1
- CC1CCCCN1c1nnc(NC(=O)NC2CCCC2)s1 (configuration not stated)
    -0.37 | 2.5
- COc1cccc(Nc2nc(N3CCOCC3)c3cnn(C)c3n2)c1
    x | 0.72
- O=C(c1nc2ncccn2n1)N1CCc2ccccc2C1
    0.24 | 1.6
- Cc1ccc(CN2C(=O)CN(C3CCCC3)C(=O)C2c2ccc(F)cc2)cc1 (configuration not stated)
    -0.93 | x
- O=C(NC1CC1)c1ccc2nc(-c3ccccc3)c(-c3ccccc3)nc2c1
    x | 1.5
- Cc1ccc(-c2nn3c(-c4ccncc4)nnc3s2)cc1C
    -1.7 | 2.4
- Cc1nc2ccccc2n1CCN1CCOCC1
    -0.74 | 1.1
- Cc1noc(C)c1C(=O)Oc1cccc2cccnc12
    -1.4 | x
- CN(CC1COc2ccccc2O1)C(=O)Cn1c(=O)oc2ccccc21 (configuration not stated)
    x | 0.97
- COC(=O)C1C(=O)C2=C(CC1C)NC(C)=C(C(=O)OC1CCCC1)C2c1ccc(OC)cc1OC (configuration not stated)
    -0.98 | 1.3
- CN(C=C(C#N)C#N)C[C@@H](O)[C@H](O)[C@@H](O)[C@@H](O)CO
    1.4 | x

Screening results (PubChem)
